Lassa entry inh – qHTS for Inhibitors of binding or entry into cells for Lassa Virus | Lassa virus pseudotype entry inhibition, cell reporter; control for the full effect not named in the record | AID 540256, 2011 | Potency, µM (top dose mostly 37.9 µM), for the others: top-dose activity change, negative = inhibition, most hits filed as inhibitors | actives 1.2% (n = 300,000); active means well fitted inhibition curve with a large enough effect; inconclusive means small, poorly fitted or top-dose-only effect, or effect the other way; inactive means flat fitted curve, though single readings scatter; tested in HEK293 cells; also: % is scaled to controls: 0 for no effect and ±100 for the full control effect; nearly all actives have a fitted effect of over 50% in size; luciferase read-out
MARV entry inh – qHTS for inhibitors of binding or entry into cells for Marburg Virus; Marburg virus pseudotyped entry inhibition, cell reporter; control for the full effect not named in the record; about a third of the inactives were read at about 46 µM; Potency, µM (doses to about 37.8 µM), for the others: top-dose activity change, negative = inhibition, most hits filed as inhibitors; actives 1.8% (n = 300,000); active = well fitted inhibition curve with a large enough effect; inconclusive = small, poorly fitted or top-dose-only effect, or effect the other way; inactive = flat fitted curve, though single readings scatter; tested in HEK293 cells; about a fifth of its hits are not listed in these tables; also: % is scaled to controls: 0 for no effect and ±100 for the full control effect; luciferase read-out
NS1 inh – qHTS Assay for Inhibitors of Influenza NS1 Protein Function. actives 0.4% (n = 270,000). S. cerevisiae slowed by influenza A NS1, growth recovery by OD600. Potency, µM (titrated, usually from 46.1 µM), for the others: at the highest dose activity, positive = more growth. AID 2326, 2010; active means well fitted rising curve with a large enough effect; inconclusive means small, poorly fitted or top-dose-only effect; inactive means no such curve, though single readings can be large or run the other way; also: nearly all actives have a fitted effect of over 50% in size
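OD600 was taken as the measure of yeast growth restored by compound in an NS1-expressing S. cerevisiae strain. Cells had been washed out of glucose medium and diluted 1:100 into galactose -URA medium, pH 6.0.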
Cruzain Triton – qHTS Assay for Promiscuous and Specific Inhibitors of Cruzain (with detergent). Cruzipain (Trypanosoma cruzi), P25779. purified cruzain, Z-FR-AMC fluorescence, 0.01% Triton. Potency, µM, inactives show max response, negative = inhibition, usual class: inhibitors. actives 0.43% (n = 200,000). AID 1478, 2009;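 also: plate controls were neutral wells for no effect and buffer without enzyme for full effect; nearly all actives have a fitted effect of over 40% in size; top concentration of the series not given in the record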
Target sequence (P25779 123-467 limits assumed): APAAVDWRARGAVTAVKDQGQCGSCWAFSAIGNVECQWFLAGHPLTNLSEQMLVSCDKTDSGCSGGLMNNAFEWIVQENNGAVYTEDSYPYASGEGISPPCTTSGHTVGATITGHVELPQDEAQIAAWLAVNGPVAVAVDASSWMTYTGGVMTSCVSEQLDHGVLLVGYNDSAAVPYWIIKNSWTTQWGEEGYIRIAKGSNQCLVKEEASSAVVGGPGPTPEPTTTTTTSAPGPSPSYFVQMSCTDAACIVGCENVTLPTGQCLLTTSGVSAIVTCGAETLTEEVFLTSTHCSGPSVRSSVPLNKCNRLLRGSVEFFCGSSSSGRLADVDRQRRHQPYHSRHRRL
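Sodium acetate buffer (100 mM, pH 5.5) containing 5 mM DTT and 0.01% Triton X-100 hosted 1.5 nM cruzain and test compound for 15 min at room temperature. Cleavage of 2 uM Z-FR-AMC was then tracked by fluorescence.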
RE007 growth inh – qHTS Assay for Inhibitors of the HIV-1 protein Vpr. S. pombe RE007 Vpr strain, BacTiter-Glo ATP luminescence, 24 h; control for the full effect not named in the record. Potency, µM (highest dose often 92.2 µM), inactives show at the top dose activity change, negative = less growth. actives 0.21% (n = 360,000); active = well fitted falling curve with a large enough effect; inconclusive = small, poorly fitted or top-dose-only effect; inactive = no such curve, though single readings can be large or run the other way;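 also: % is scaled to controls: 0 for no effect and ±100 for the full control effect; nearly all actives have a fitted effect of over 50% in size; the assay follows cell death caused by Vpr and the record does not say whether a fall means rescue or toxicity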
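Fission yeast strain RE007, carrying one chromosomally integrated HIV-1 vpr copy, was seeded at OD 0.01 in PMG+AL medium with 23 nL pinned compound. After 24 h at 30 °C and 99% humidity, viability was read by BacTiter-Glo luminescence.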
SARS PLP yeast – qHTS of Yeast-based Assay for SARS-CoV PLP; AID 485353, 2010; actives 0.19% (n = 330,000); Potency, µM (doses to about 32.9 µM), for the others: at the top dose activity, positive = growth rescue; S. cerevisiae expressing SARS-CoV PLpro, growth rescue; control for the full effect not named in the record; active means well fitted rising curve with a large enough effect; inconclusive means small, poorly fitted or top-dose-only effect; inactive means no such curve, though single readings can be large or run the other way; also: 0% is about no effect; nearly all actives have a fitted effect of over 55% in size; growth read by luminescence after 48 h
Cruzain noTriton – qHTS Assay for Promiscuous and Specific Inhibitors of Cruzain (without detergent) | purified cruzain, Z-FR-AMC fluorescence, no detergent | Cruzipain (Trypanosoma cruzi), P25779 | Potency, µM, inactives show max response, negative = inhibition, actives largely listed as inhibitors | actives 2.3% (n = 200,000) | AID 1476, 2009;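 also: plate controls were enzyme without inhibitor for no effect and buffer without enzyme for full effect; nearly all actives have a fitted effect of over 40% in size; top concentration of the series not given in the record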
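Purified cruzain at 1.5 nM, pre-incubated 15 min with compound at room temperature in 100 mM sodium acetate pH 5.5, 5 mM DTT, 0.00005% Triton X-100. Reaction started with 2 uM Z-FR-AMC; AMC fluorescence increase over 60 s gives rate.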
2A StopGo – High Throughput Screening for Foot and Mouth Disease Virus Antivirals; AID 1159524, 2015; Potency, µM (highest dose often 57.9 µM), inactives show at the top dose signal change, negative = less light; actives 1.2% (n = 410,000); human cells with a luciferase reporter of 2A StopGo recoding; control for the full effect not named in the record; active = well fitted falling curve with a large enough effect; inconclusive = small, poorly fitted or top-dose-only effect; inactive = no such curve, though single readings can be large or run the other way; tested in HEK293T cells; also: % is scaled to controls: 0 for no effect and ±100 for the full control effect; nearly all actives have a fitted effect of over 45% in size; luciferase light after 4 h
* = called active by the depositor; ? = inconclusive; · = no result given; & = joins results of further samples; [ ] = remark or other dose. Unless noted, calls follow the shape of the dose curve; as a rule, active = well fitted curve in the direction sought with a large enough effect; inconclusive = small, poorly fitted or top-dose-only effect, or another doubt; inactive = no such curve, though single readings can be large; an effect the other way counts as inactive or inconclusive. Potency is read from the fitted curve at half-maximal effect.

SMILES | Lassa entry inh | MARV entry inh | NS1 inh | Cruzain Triton | RE007 growth inh | SARS PLP yeast | Cruzain noTriton | 2A StopGo
CCC(C)/C(C)=N/NC(=O)c1cn(-c2ccccc2)nc1-c1ccccc1 (stereo not drawn) | ? | ? | ? | -4.0% | -4% | 4% | 1% | -20%
Cc1ccc(NC(=O)CN(C)C(=O)CSc2nnc(C(F)(F)F)n2C)cc1 | 0% | 3%[46.1 µM] | · | · | 4% | 1% | · | 7%
COc1ccc(/C=N/n2c(-c3ccco3)nc3ccccc3c2=O)cc1 | -5% | 2% | -1% | -6.4% | 0% | 3% | -4% | 0%
CC(C)CC(=O)NC(=S)N1CCN(c2ccc([N+](=O)[O-])cc2Cl)CC1 | 1% | -3% | 4% | -3.2% | -12% | ? | -3% | -24%
CC(C)NC(=O)C1CCN(C(=O)N(C)C)CC1 | -2% | 19% | 1% | 0.1% | -1% | 1% | 8% | ·
CCOc1c(C#N)c(C#N)c2nc(C)cc(C)n12 | -6% | ? | -5% | 3.9% | -8% | 2% | 8% | -1%
NCCCC[C@@H]1NC(=O)c2cc([N+](=O)[O-])cc(I)c2SC[C@@H](C(N)=O)NC(=O)[C@H](Cc2ccc(O)cc2)NC1=O | 0% | 13% | ? | -20% | -15% | 11% | -21% | -8%
CCOC(=O)c1sc(NC(=O)COC(=O)CNC(=O)c2ccco2)c(C(=O)OCC)c1C | -24% | -9% | -5% | -14% | -11% | -2% | ? | -9%
O=C(Nc1ccncc1)c1cccc(S(=O)(=O)N2CCN(c3ccc(F)cc3)CC2)c1 | ? | ? | · | · | 0% | -1% | · | 20µM*
CC(=O)c1cccc(NC(=S)N2CCN(S(=O)(=O)c3ccccc3)CC2)c1 | ? | 8% | 15% | · | 7% | ? | · | 31%[activator]
O=C(CN1C(=O)CC(c2ccccc2)=Nc2ccccc21)NCc1ccccc1 | ? | ? | 0% | -5.7% | 4% | ? | 5% | 7%
Cc1cccc(NC(=O)c2cnn(-c3ccc(F)cc3)c2C2CCNCC2)c1C | 11% | 18% | · | · | 33% | 0% | · | -23%
O=C(CNc1cccc([N+](=O)[O-])c1)NC(=O)NC1CCCCC1 | -19% | 2% | · | · | -1% | -12% | · | -2%
Cc1ccccc1CNCCCSc1nnnn1C | -7%[46.1 µM] | -13%[46.1 µM] | · | -0.3% | · | · | 11% | -9%
CC(C)C(=O)Nc1ccc2c(c1)nc(CCN1CCN(c3ccccn3)CC1)n2C | 17%[46.1 µM] | -1%[46.1 µM] | 1% | · | -16% | 0% | · | -3%
CSCCC(NC(N)=O)C(=O)NCc1ccc(Cl)cc1 (stereo not drawn) | 4% | 0% | 15% | 7.3% | 0% | 11% | -9% | 9%
O=C(NCc1cc2ccccc2[nH]1)C1CCC(=O)N(CCCN2CCCC2=O)C1 (stereo not drawn) | · | · | 4% | · | -4% | 5% | · | 11%
COc1ccc(NC(=O)CC(=O)Nc2ccc(OC)cc2OC)c(OC)c1 | 12% | 1% | ? | -0.7% | 1% | 1% | 2% | 7%
Cn1nc(C(F)(F)F)c(-c2ccc(Br)cc2)c1NC(=O)C1CCC1C(=O)O (stereo not drawn) | 3%[46.1 µM] | ? | -4% | · | 7% | 2% | · | 0%
Cc1ccc(NC(=O)c2ccc(CNc3c(N4CCOCC4)c(=O)c3=O)cc2)cc1 | · | -8% | -3% | -0.9% | -3% | 5% | 7% | 1%
Cc1cc(C(C)(C)C)ccc1OCCn1ccnc1 | ? | -27% | -5% | -1.1% | -2% | -6% | 2% | -27%
Cc1ccc(CNC(=O)C2CCN(c3nc4ccccc4n(C)c3=O)CC2)cc1 | -23%[46.1 µM] | 12%[46.1 µM] | · | 2.4% | · | · | -15% | -10%
O=C(Nc1ccnn1C1CCN(CC2CC=CCC2)CC1)c1ccccc1 (stereo not drawn) | · | · | -4% | · | 9% | 11% | · | 3%
Cc1cc(C)c2ccc3c(C)c(C)nc3c2[nH]1 | ? | -33%[46.1 µM] | · | · | -16% | -1% | · | 8%
O=C(COC(=O)[C@@H]1CCCN1C(=O)c1cccs1)NCCc1ccccc1 | 7% | 10% | 1% | -11% | -6% | -3% | 5% | 0%
COc1ccc(NC(=O)C(=O)NCCc2ccc(OC)c(OC)c2)c(OC)c1 | -5%[46.1 µM] | · | · | -1.7% | · | · | ? | -2%
CCS(=O)(=O)n1nc(-c2ccc(OC)cc2)nc1SC | 5% | -1%[46.1 µM] | -4% | 1.7% | -19% | -1% | 3% | 36%[activator]
CCCOc1cccc(C(=O)NC(=S)Nc2cccc(C(F)(F)F)c2)c1 | ? | 4% | 6% | -1.6% | 4% | 8% | -19% | ·
COc1ccc(NS(=O)(=O)c2cccc(C(=O)N/N=C/c3ccccc3OC)c2)cc1 | 4% | -5% | · | · | ? | 4% | · | 6%
COc1cc(OC)cc(C(=O)OCC(=O)Nc2ccc(F)cc2F)c1 | -41% | -7%[46.1 µM] | · | · | 16% | -1% | · | 0%
CCOc1ccc(CCNC(=O)CCNS(=O)(=O)c2ccc3c(c2)CCN3C(C)=O)cc1OCC | · | · | -10% | · | 8% | -3% | · | 13%
Cc1cc(C)c(C#N)c(SCc2nc3ccccc3[nH]2)n1 | ? | -12% | -60% | -14% | -23% | -5% | -3% | 46%[activator]
C=C(Cl)COc1ccc2c(CCCC)cc(=O)oc2c1 | -19% | 9%[46.1 µM] | -74% | -4.0% | -12% | -17% | 1% | -14%
CCn1c(SCC(=O)N2CCCc3ccccc32)nnc1-c1c[nH]c2ccccc12 | ? | ? | -37% | -4.3% | -1% | -6% | 3% | ?
CCCCN(CC(=O)NCc1ccc(F)cc1)C(=O)c1ccco1 | 14% | -12% | -72% | · | 6% | 0% | · | 0%
COc1ccc(CNS(=O)(=O)c2ccc(Br)s2)cc1 | 4%[46.1 µM] | ? | -31% | · | 3% | 1% | · | 2%
Cc1cc2cc(C)c3nnc(SCC(=O)NCc4ccc5c(c4)OCO5)n3c2cc1C | 14% | -3% | 15% | 6.0% | -19%[3.69 µM] | -2% | ? | -11%
COc1ccc(OC)c(NC(=O)CCc2nnc3ccc(N4CCC(C)CC4)nn23)c1 | -19%[46.1 µM] | -10%[46.1 µM] | -13% | · | -1% | 22% | · | -26%
O=C(NC(CO)Cc1ccccc1)c1ccccc1 (stereo not drawn) | 5% | -3%&-3% | 4% | -1.2% | 6% | 0% | 4% | 17%
O=C(O)CC1CCCC(c2ccccc2)C1=O (stereo not drawn) | -11% | ? | -8% | -1.9% | -2% | ? | 18% | 17%
COc1ccc(CC(=O)NCc2nnc(SCC(=O)Nc3ccc(OC)cc3)n2C)cc1 | · | · | -1% | · | -1% | -1% | · | 1%
O=C(c1ccco1)N1CCC(n2nnc3ccccc32)CC1 | -3% | 18% | -9% | 0.2% | -4% | -2% | 5% | 11%
Cc1ccc(C)c(C(=O)CCC(=O)NNC(=O)Cn2nc(C)cc2C)c1 | 1% | 8%[46.1 µM] | · | · | 15% | 3% | · | -14%
CCCCn1c(N)c(N(CCOC)C(=O)CCCc2nc3ccccc3c(=O)[nH]2)c(=O)[nH]c1=O | 2% | 21% | · | · | 21% | 5% | · | -16%
O=C(CCc1ccccc1Cl)NC1CCCN(c2ccc(C(F)(F)F)cn2)C1 (stereo not drawn) | · | · | -5% | · | -9% | 0% | · | 0%
Cc1c(C)n(CC(O)CN2CCOCC2)c2ccccc12 (stereo not drawn) | -18% | 7% | -3% | 3.5% | 7% | -2% | 8% | ·
O=C(CSc1ccccc1Cl)c1ccco1 | ? | 12% | -3% | -4.8% | ? | -5% | 6% | 16%
CC(OC(=O)C1CCCCC1)C(=O)Nc1cccc(Cl)c1 (stereo not drawn) | -1% | -13% | · | · | 24% | -1% | · | ?
CCN(CC)CCCNc1oc(-c2cccc(Cl)c2)nc1C#N | -2% | 16µM* | -11% | -20% | -9% | 2% | -15% | -14%
O=C(CN1C(=O)C2(SCC(=O)N2c2cccc(F)c2)c2ccccc21)NCCc1ccccc1 (stereo not drawn) | 1%[46.1 µM] | · | · | -3.5% | · | · | -12% | 1%
Cc1nn(Cc2ccccc2)c2c1C(c1ccc(Cl)cc1)C(C#N)=C(N)O2 (stereo not drawn) | -29% | -12% | -5% | -9.0% | 6% | 12% | 8% | -24%
CC1=C(C(=O)OCC(C)C)C(c2cc3c(cc2Br)OCO3)NC(=O)N1C (stereo not drawn) | -7% | ? | -65% | -5.7% | 5% | -5% | 2% | -17%
O=C(Nc1nc(-c2cc(F)ccc2F)cs1)C1=NN(c2ccccc2)C(=O)CC1 | ? | -1% | · | · | -17% | -7% | · | -31%
O=C(Nc1cccc(NC(=O)c2ccco2)c1)c1cnccn1 | -1% | ? | 1% | -6.3% | 3% | -14% | -13% | -14%
COc1ccc(-c2nc3nc(C)cc(Nc4cccc(C(F)(F)F)c4)n3n2)cc1 | 20%[46.1 µM] | -21%[46.1 µM] | · | -0.9% | · | 0% | 25µM* | -2%
C=CCNC(=O)c1onc(CSc2cccc(OC)c2)c1C(=O)O | · | · | ? | 2.2% | -4% | 3% | 5% | -17%
CCC(C)NCC(=O)Nc1sc2c(c1C(N)=O)CCC2 (stereo not drawn) | -3% | 9% | 6% | 6.0% | -1% | -3% | -6% | 20%
Cc1cc2[nH]c3c(c[n+](C)c4ccccc34)c2cc1C | · | · | -33% | · | -10% | -3% | · | -5%
CC(C)CNC(=O)C(=O)Nc1ccc2c(c1)N(S(=O)(=O)c1cccs1)CCC2 | ? | 3.2µM* | · | · | 28% | -3% | · | 3%
Cc1ccc(OC(=O)c2c(C)nn(-c3ccccc3)c2C)cc1 | ? | ? | -36% | · | 4% | -4% | · | 36%[activator]

From PubChem BioAssay
